MbtI inh = MbtI salicylate synthase inhibitors, primary screen, biochemical, fluorescence intensity | P9WFX0 | purified MbtI enzyme, fluorescence intensity read-out | inhibition, %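 (about 17 µg/mL by stock and volumes)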 | actives 0.89% (n = 100,000) | AID 493033, 2011;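 active = above 50% in both replicates, above 80% if mildly self-fluorescent; inactive = the rest, strongly fluorescent compounds included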;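 also: 0% = mean of negative and 100% = mean of positive controls; one replicate is shown; some compounds called inactive have numbers as strong as hits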
Polio RdRp inh = poliovirus RdRp elongation inhibitors, primary screen, biochemical, fluorescence polarization, total intensity; poliovirus polymerase elongation; hits give low values; % elongation, % (compound at 16.7 µg/mL); actives 0.66% (n = 150,000); AID 588519, 2011; in the data active = % elongation below about 90%; also: some results filed as inactive read as strong as hits
Target sequence (P03300 1749-2209 limits assumed): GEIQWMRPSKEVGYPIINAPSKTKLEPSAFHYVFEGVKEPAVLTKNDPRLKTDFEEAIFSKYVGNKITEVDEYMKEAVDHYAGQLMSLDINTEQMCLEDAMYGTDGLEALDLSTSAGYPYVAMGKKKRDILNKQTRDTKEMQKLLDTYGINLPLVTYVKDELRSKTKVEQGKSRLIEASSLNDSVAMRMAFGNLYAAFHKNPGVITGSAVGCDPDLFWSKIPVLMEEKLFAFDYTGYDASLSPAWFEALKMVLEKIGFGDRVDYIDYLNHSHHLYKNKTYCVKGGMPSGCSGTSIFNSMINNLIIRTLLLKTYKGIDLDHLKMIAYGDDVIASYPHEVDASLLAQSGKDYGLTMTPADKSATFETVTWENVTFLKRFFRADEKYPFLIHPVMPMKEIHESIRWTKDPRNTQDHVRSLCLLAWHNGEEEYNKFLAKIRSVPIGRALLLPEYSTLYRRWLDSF
MenB inh = M. tuberculosis MenB inhibitors, primary screen, biochemical, absorbance; actives 0.43% (n = 100,000); 1,4-dihydroxy-2-naphthoyl-CoA synthase (Mycobacterium tuberculosis (strain ATCC 25618 / …; inhibition, %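 (about 12 µg/mL by stock and volumes)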; MenB enzyme assay, absorbance read-out; some hits fall short of the stated cut;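 active = mean of two replicates above 30%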;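 also: 0% = no compound and 100% = wells with inactive enzyme; the first replicate is given; strong numbers were not always called active; inactives centre near -10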
Target sequence (P9WNP5 whole entry, looked up): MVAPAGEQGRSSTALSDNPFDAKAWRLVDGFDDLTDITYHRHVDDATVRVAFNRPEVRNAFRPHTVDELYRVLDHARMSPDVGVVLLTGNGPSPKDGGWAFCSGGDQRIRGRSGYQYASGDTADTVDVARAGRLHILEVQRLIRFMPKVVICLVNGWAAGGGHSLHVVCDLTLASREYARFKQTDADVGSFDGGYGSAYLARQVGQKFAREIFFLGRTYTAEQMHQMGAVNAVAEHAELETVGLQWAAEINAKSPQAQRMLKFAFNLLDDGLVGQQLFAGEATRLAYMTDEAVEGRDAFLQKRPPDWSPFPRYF
Polio RdRp inh intensity = further read-out of Polio RdRp inh, marked with its call; % elongation; measured here: total intensity read-out; formula for this scale not given here;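 total fluorescence in place of polarization; lower means less elongation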
Active calls of the source: *; i = inactive; nt = not tested or not shown; & = joins results of further samples. Compounds were not picked by outcome; about 1.8% have a hit in one of these screens.

No.	structure	MenB inh	Polio RdRp inh intensity
1	COc1ccc(NC(=O)c2cccc(C)c2)c(OC)c1	-5	108
2	COc1cccc(C(=O)NCc2cn3ccccc3n2)c1	-18	118&106
3	Cc1nc(N2CCN(C(=O)c3ccco3)CC2)[nH]c(=O)c1Cc1cccc(Cl)c1	-1	101
4	CCOC(=O)c1cc2c(c(CSc3cccc(C(F)(F)F)c3)c1)OCOC2	4	114
5	CCCCCn1c(=O)[nH]c2cc(C(=O)NC3CCC(C)CC3)ccc2c1=O (configuration not stated)	-21	101
6	Cc1cc(NC(=O)C2CC(=O)OC2c2ccccc2)no1 (configuration not stated)	-12	105
7	COc1ccc2c(c1)c(=O)oc1cc(OC(C)C)ccc12	13	94
8	CCOC(=O)Cn1c(-c2ccco2)nc(-c2ccccc2)c1-c1ccccc1	-5	105
9	Cc1cc(C)n(C(=O)CNc2cccc(Cl)c2C)n1	6	103
10	CN(C)c1ccc(C2N(Cc3ccccc3)CCN2Cc2ccccc2)cc1	8	114
11	C=CCn1c(N2CCOCC2)nc2ccccc21	-2	102
12	CCOc1cc(/C=C2/SC(=N)N(c3nccs3)C2=O)ccc1OCCN1CCOCC1	-135	160
13	Cc1cc(C(=O)CSc2nc(N)cc(N)n2)c(C)n1C	-2	105
14	O=C(c1ccccc1)c1nnc(-c2ccccc2)o1	nt	106
15	CCOC(=O)c1[nH]c(C)c(CC(C)C)c1C	-19	109

No.	MbtI inh	Polio RdRp inh
1	nt	108
2	16	109&107
3	2	103
4	-14	101
5	-6	100
6	nt	98
7	107	97
8	107	102
9	nt	105
10	nt	106
11	-8	100
12	nt	127
13	5	107
14	-8	105
15	nt	105

3 of these compounds in another layout:
no. | SMILES | MenB inh | Polio RdRp inh intensity | MbtI inh | Polio RdRp inh
1 | COc1ccc(NC(=O)c2cccc(C)c2)c(OC)c1 | -5 | 108 | nt | 108
2 | COc1cccc(C(=O)NCc2cn3ccccc3n2)c1 | -18 | 118&106 | 16 | 109&107
3 | Cc1nc(N2CCN(C(=O)c3ccco3)CC2)[nH]c(=O)c1Cc1cccc(Cl)c1 | -1 | 101 | 2 | 103

Single values from the entries so far:
MbtI inh, C=CCn1c(N2CCOCC2)nc2ccccc21 : -8
MenB inh, Cc1cc(NC(=O)C2CC(=O)OC2c2ccccc2)no1 (configuration not stated) : -12
Polio RdRp inh intensity, COc1ccc(NC(=O)c2cccc(C)c2)c(OC)c1 : 108
Polio RdRp inh, CCOC(=O)Cn1c(-c2ccco2)nc(-c2ccccc2)c1-c1ccccc1 : 102
Polio RdRp inh, O=C(c1ccccc1)c1nnc(-c2ccccc2)o1 : 105

Further compounds:
No.	structure	MenB inh	Polio RdRp inh intensity
16	O=C(c1ccco1)N1CCN(C(c2ccccc2)c2sc3ncnn3c2O)CC1 (configuration not stated)	-25	106
17	C=CCN(CC=C)S(=O)(=O)c1ccc(C(=O)Nc2nc3c(s2)CC(C)CC3)cc1 (configuration not stated)	-11	100
18	CC(=O)CC(c1ccc([N+](=O)[O-])cc1)c1c(O)c2ccccc2oc1=O (configuration not stated)	-2	100
19	O=C(O)CCCn1cc(NC(=O)c2ccco2)cn1	-9	101
20	COc1ccc(CNCC#N)cc1OC	6	102
21	CCOC(=O)c1nn(-c2cc(C(=O)OC)cc(C(=O)OC)c2)cc1O	-4	107
22	Cc1noc(C)c1CCOC(=O)c1cc(-c2ccc(Br)cc2)nc2ccccc12	-5	99
23	Cc1ccc(NC(=O)C(C)OC(=O)Cc2coc3cc(C)ccc23)cc1 (configuration not stated)	-6	97
24	Cc1cc(C)nc(NC(=O)/C=C/c2ccccc2Cl)n1	-8	101
25	Cc1cc(=O)n(CCO)c(=O)[nH]1	-1	97
26	CC1CC(C)(C)CC2(C1)NC(=O)N(Cc1cccc(S(=O)(=O)N(C)C)c1)C2=O (configuration not stated)	-10	105
27	CCCN(CC1CC1)C(=O)c1cc(=O)c2ccccc2o1	nt	106
28	CN(C)c1cccc(C(=O)OCC(=O)c2cc3ccccc3o2)c1	-64	102
29	CC(C)C(=O)OCC(=O)Nc1ccc(C#N)cc1	4	104
30	CC(=O)Nc1cccc(C(=O)N(C)c2ccccc2)c1	-15	103

No.	MbtI inh	Polio RdRp inh
16	20	101
17	-8	98
18	11	101
19	-11	102
20	-20	101
21	-5	108
22	-4	101
23	7	101
24	11	101
25	-4	101
26	-7	109
27	0	104
28	-21	110
29	2	99
30	-2	101

The list continues.
No.	structure	MenB inh	Polio RdRp inh intensity
31	C=CCc1cc(C(=O)N2CCCCC2)ccc1O	-11	101
32	O=C(CCc1nc2cccnc2n1Cc1cccs1)Nc1cccc(Br)c1	-37	116
33	COc1ccc(C(=O)ON=C2CCN(C)CC2)cc1	-13	99
34	CCNC(=S)Nc1ccc(NC(=S)NCC)cc1	-27	101
35	CCCc1nc2c(o1)NC(N)=C(C#N)C2c1ccc(OC(C)C)c(OC)c1 (configuration not stated)	-22	107
36	Cc1csc(SCC(=O)NN2C(=O)NC3(CCCCC3)C2=O)n1	6	108
37	CC1=C(C#N)C(c2cccnc2)C2=C(CC(c3ccc(Cl)cc3)CC2=O)N1 (configuration not stated)	-27	98
38	CCOC(=O)N1CCN(C(=O)c2sc3nc(-c4ccc(F)cc4)cn3c2C)CC1	-36	105
39	COc1ccc(-c2nc(CSc3nc(C)c(C)n3C3CCCC3)cs2)cc1OC	-39	104
40	CC(C)N(Cc1ccccc1)C(=S)NCCN1CCOCC1	-12	108
41	C=CCOc1nc(F)c(Cl)c2c1Oc1cc(Br)c(Br)cc1O2	-28	105
42	CCC(CO)NC(=S)Nc1cc(C(F)(F)F)cc(C(F)(F)F)c1 (configuration not stated)	-7	109
43	Cc1ccc(C(C)C)c(OCc2ccc(N)cc2)c1	-18	102
44	O=C(/C=C/Nc1ccccc1)C(F)(F)F	-56	107
45	Nc1cccc(NC(=O)c2ccccc2)c1	-16	102

No.	MbtI inh	Polio RdRp inh
31	2	99
32	5	102
33	4	103
34	12	99
35	nt	105
36	-1	100
37	i	99
38	-7	104
39	0	102
40	7	99
41	-2	104
42	-12	108
43	nt	102
44	-3	100
45	10	98

The list continues.
No.	structure	MenB inh	Polio RdRp inh intensity
46	Cc1[nH]c2ccccc2c1C(=O)CN1CC(C)OC(C)C1 (configuration not stated)	-20	107
47	N#CC(c1ccccc1)C12CC3CC(CC(C3)C1)C2 (configuration not stated)	-16	106
48	CC(C)N(Cc1nc(-c2ccccc2)no1)C(=O)c1ccccc1	-25	108
49	CC1CCCC(C)N1C(=O)COC(=O)/C=C/c1ccco1 (configuration not stated)	nt	107
50	O=C1CC(CSc2nnnn2-c2ccccc2)=NN1	14	105
51	Nc1cc(=O)[nH]c(SCC(=O)N2CCc3ccccc32)n1	-73	104
52	COc1ccc(C(=O)NCc2c(-c3ccccc3)noc2C)cc1	1	104
53	O=C(CC(c1ccco1)C1CCCCC1=O)c1ccco1 (configuration not stated)	nt	106
54	Cc1ccccc1NC(=S)N1CCC(N(C)C(C)C)CC1	-43	104
55	CC(NS(=O)(=O)c1ccccc1)c1ccccc1 (configuration not stated)	-66	101
56	N#Cc1cccc(C(=O)NCC(F)(F)F)c1	-20	110
57	CCC1(c2ccccc2)NC(=O)NC1=O (configuration not stated)	38	102
58	COc1ccccc1CNC(=O)c1ccc2nc3c(cc2c1)CCS3	-3	99
59	CC(=O)NCc1ccc(C(=O)CSc2nnc(-c3ccoc3C)n2C)s1	-29	97
60	CCOC(=O)C1=C(c2ccccc2)NC(=O)NC1c1ccc(OC)c(OC)c1 (configuration not stated)	-17	102

No.	MbtI inh	Polio RdRp inh
46	0	101
47	1	103
48	-6	104
49	-3	101
50	-6	103
51	-17	102
52	-4	104
53	-4	104
54	-3	100
55	0	101
56	-11	105
57	-11	98
58	9	102
59	55	95
60	4	99

Next records follow.
No.	structure	MenB inh	Polio RdRp inh intensity
61	COC(=O)c1ccc(CNC(=O)Cn2cnnn2)cc1	1	97
62	O=C1OCCC1Oc1ncnc2ccccc12 (configuration not stated)	1	106
63	Cc1noc(C)c1COc1ccc(CC(=O)NC2CCCc3ccccc32)cc1 (configuration not stated)	-6	102
64	Cc1ccc2[nH]cc(C(=O)N3CCCCC3)c(=O)c2c1	-136	99
65	CC(=O)Nc1cccc(C(=O)Nc2ccc(N3CCCCC3)cc2)c1	-10	104
66	O=C1NC(c2ccc(O)cc2)C(C(=O)c2ccccc2)C(O)(C(F)(F)F)N1 (configuration not stated)	-10	104
67	N#C/C(=C\c1ccc[nH]1)C(=O)N1CCc2ccccc2C1	-29	108
68	CCOc1ccc(C(=S)N2CCN(C)CC2)cc1	-27	101
69	Cc1ccc(-n2c(N)c(C(=O)NCC(C)C)c3nc4ccccc4nc32)cc1	11	105
70	C=C1c2ccccc2NC(=S)N1c1ccc(OC)cc1	-27	97
71	COc1ccc(-c2csc(C(C#N)=C3CCCC3)n2)cc1	24	105
72	N#C/C(=C1\CCCN1)c1nc2ccccc2s1	nt	105
73	COc1cc2c(cc1OC)C(c1cc3cc4c(cc3[nH]c1=O)OCO4)N(C(=O)C1CCC1)CC2 (configuration not stated)	-8	106
74	N#Cc1nc(-c2ccccc2)oc1N1CCN(C(c2ccccc2)c2ccccc2)CC1	-10	108
75	CS(=O)(=NS(=O)(=O)c1cccs1)c1ccc(OC(=O)c2ccc(Cl)cc2)cc1 (configuration not stated)	-26	105

No.	MbtI inh	Polio RdRp inh
61	14	104
62	-6	103
63	-9	107
64	17	102
65	9	104
66	-6	102
67	-8	101
68	21	99
69	-1	102
70	-39	99
71	-3	101
72	-5	101
73	88	105
74	6	104
75	-8	103

A draw from above in order of heavy-atom count, highest first:
No.	structure	MenB inh	Polio RdRp inh intensity
73	COc1cc2c(cc1OC)C(c1cc3cc4c(cc3[nH]c1=O)OCO4)N(C(=O)C1CCC1)CC2 (configuration not stated)	-8	106
63	Cc1noc(C)c1COc1ccc(CC(=O)NC2CCCc3ccccc32)cc1 (configuration not stated)	-6	102
75	CS(=O)(=NS(=O)(=O)c1cccs1)c1ccc(OC(=O)c2ccc(Cl)cc2)cc1 (configuration not stated)	-26	105

No.	MbtI inh	Polio RdRp inh
73	88	105
63	-9	107
75	-8	103

Continuation.
No.	structure	MenB inh	Polio RdRp inh intensity
76	Cc1cccc(OCCOC(=O)c2ccccc2O)c1	-15	108
77	CCCn1c(C)cc(C(=O)CSc2ncn[nH]2)c1C	-14	98
78	Cc1cc2nc(NCCCN3CCCC3=O)c3ccccc3n2n1	-10	99
79	CCOC(=O)/C(C#N)=C\c1ccccc1N1CCN(C)CC1	-58	96
80	COc1cc(C(=O)N2C3=C(CCCC3)C(=O)NC23CCCCC3)cc(OC)c1OC	-5	102
81	CC(C)NS(=O)(=O)c1ccc(OCC(=O)N2CCCCC2)cc1	-11	102
82	CCC(C)c1ccc(NC(=O)C2CC(=O)N(c3ccc(C)cc3)C2)cc1 (configuration not stated)	-11	108
83	CCOc1ccc(NC(=O)CN2C(=O)CS/C2=C\C#N)cc1	-30	114
84	Cc1ccccc1NS(=O)(=O)c1ccc2c(c1)CCN2C(=O)C1CCC1	-13	108
85	CC1(C)C(=O)NC(=O)N1CN1C(=O)NC(=O)C1(C)C	-37	103
86	COCC(C)NC(=O)c1c(-c2ccccc2)noc1C (configuration not stated)	-9	112
87	CN1CCC(n2nccc2NC(=O)c2cccnc2Sc2ccccc2)CC1	-22	106
88	Cc1ccc(Cl)cc1NC(=S)N(N)CCO	1	110
89	O=C1N/C(=N\Nc2ccccc2)S/C1=C\c1ccccc1	-36	124
90	OCC(O)/C=N/Nc1nc2ccccc2s1 (configuration not stated)	-1	104
91	CCC(Oc1ccccc1C)C(=O)O (configuration not stated)	22	102
92	O=C(c1ccc2c(c1)sc1nc(-c3ccccc3)cn12)N1CCN(C(=O)c2ccco2)CC1	-10	104

No.	MbtI inh	Polio RdRp inh
76	7	105
77	0	103
78	104	103
79	-3	103
80	24	102
81	3	102
82	-11	104
83	-9	104
84	-1	102
85	4	102
86	nt	111
87	4	106
88	-8	106
89	80*	108
90	17	99
91	-2	102
92	-46	106

Screening data (PubChem BioAssay)
